FH mod = Identification of activators of human fumarate hydratase by quantitative high-throughput screening | FH coupled MDH/diaphorase resazurin fluorescence, 15 min | Potency, µM (top dose mostly 79.9 µM), without a hit: top-dose activity change, negative = inhibition, actives largely listed as inhibitors | 0.22% of 54,000 active | AID 1347055, 2019; note: potency is the fitted concentration of half-maximal effect; % is set by controls: 0 for no effect and ±100 for the full control effect; the screen sought activators but most active calls are inhibition curves; nearly all actives have a fitted effect of over 45% in size
GALK inh = GALK (human) enzyme inhibition; 44,000 tested, under 10 active; recombinant GALK, Kinase-Glo ATP luminescence, 1 h; Potency, µM (doses to about 57.5 µM), for the others: at the highest dose activity, negative = inhibition, most hits filed as inhibitors; AID 1347072; P51570;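 note: plate controls were full GALK reaction for no effect and reaction lacking GALK for full effect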
Target sequence (P51570 whole entry, looked up): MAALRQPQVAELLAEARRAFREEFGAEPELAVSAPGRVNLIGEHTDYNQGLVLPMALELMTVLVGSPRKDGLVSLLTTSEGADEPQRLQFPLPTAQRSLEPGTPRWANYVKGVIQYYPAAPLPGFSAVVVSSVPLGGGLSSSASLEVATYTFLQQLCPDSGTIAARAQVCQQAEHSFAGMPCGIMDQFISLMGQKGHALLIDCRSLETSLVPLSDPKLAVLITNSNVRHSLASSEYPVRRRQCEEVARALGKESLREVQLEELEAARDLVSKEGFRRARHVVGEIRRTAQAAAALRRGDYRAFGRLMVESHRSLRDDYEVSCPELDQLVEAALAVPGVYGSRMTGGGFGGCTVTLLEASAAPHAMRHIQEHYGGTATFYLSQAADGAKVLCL
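5 nM GALK; 35 uM ATP; 100 uM D-galactose; 20 mM HEPES pH 8.0, 5 mM MgCl2, 60 mM NaCl, 1 mM DTT, 0.01% BSA; 1 h RT; Kinase-Glo Plus luminescence.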
B2AR arrestin ag = agonists recruiting beta-arrestin to human beta2-adrenergic receptor. P07550. 44,000 tested, under 10 active. AID 1347077. Potency, µM (top dose mostly 46.1 µM), for the others: top-dose activation, usual class: activators. HTLA Tango cells, beta-arrestin recruitment, luciferase luminescence, 18 h;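 note: potency is the fitted concentration of half-maximal effect; 0% = DMSO and full agonism = EC100 isoproterenol or metaproterenol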
Target sequence (P07550 whole entry, looked up): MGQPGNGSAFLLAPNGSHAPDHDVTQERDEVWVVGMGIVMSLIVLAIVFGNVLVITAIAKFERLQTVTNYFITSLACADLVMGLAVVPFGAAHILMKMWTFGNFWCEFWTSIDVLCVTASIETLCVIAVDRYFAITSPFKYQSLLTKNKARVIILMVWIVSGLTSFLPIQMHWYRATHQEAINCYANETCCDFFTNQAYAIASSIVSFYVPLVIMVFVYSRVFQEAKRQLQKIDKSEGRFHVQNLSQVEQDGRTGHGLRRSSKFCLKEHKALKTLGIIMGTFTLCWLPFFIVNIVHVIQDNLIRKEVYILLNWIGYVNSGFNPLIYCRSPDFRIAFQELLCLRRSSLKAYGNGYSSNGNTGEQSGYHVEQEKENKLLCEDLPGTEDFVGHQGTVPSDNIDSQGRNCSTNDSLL
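Tango cells (recombinant beta2-AR, beta-arrestin, tTA-driven luciferase), 1500/well in DMEM 1% FBS, treated 18 h at 37 °C with compounds up to 46 µM; luciferin mix added, luminescence read after 15 min; %activity curves fitted and curve-classed.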
PTAP-TSG101 blk = TSG101-PTAP interaction inhibition, HIV-1 budding; Fluorescence polarization, FITC-PTAP peptide/Tsg101, 20 min; Potency, µM (series often up to 115 µM), for inactives: at the highest dose activity change, negative = inhibition, most hits filed as inhibitors; 44,000 tested, under 10 active; AID 1347069; note: potency is the fitted concentration of half-maximal effect; 0% is about no effect
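Steps: Tsg101 binding domain (10 uM final) in HEPES pH 7.5/NaCl/Tween 20/EDTA/TCEP; add compound; add FITC-PTAP peptide (50 nM final); incubate 20 min r.t.; read polarization.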
p53null 32C tox = kills p53 null cells at the permissive temperature. 0.62% of 55,000 active. H1299-neo p53 null cells, ATP luminescence, 24 h, 32C. Potency, µM (top dose mostly 46.1 µM), for the others: top-dose activity change, negative = cytotoxicity, hits mostly cytotoxic;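 note: potency is the fitted concentration of half-maximal effect; 0% = DMSO only and -100% = full killing by 100 µM tamoxifen; nearly all actives have a fitted effect of over 55% in size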
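H1299-neo (p53 null) cells, 600/well, treated 24 h at 32C with compound up to 46 uM; ATPlite luminescence viability, normalized to DMSO and 100 uM tamoxifen; AC50 by Hill fit.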
p53null 39C tox = p53 null cell cytotoxicity, nonpermissive temperature; AID 904; 0.97% of 55,000 active; H1299 p53-null (neo) cells, 39C, ATPlite viability, 24 h; Potency, µM (top dose mostly 46.1 µM), inactives show at the top dose activity, negative = cell killing, hits mostly cytotoxic;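 note: potency is the fitted concentration of half-maximal effect; 0% = DMSO only and -100% = full killing by 100 µM tamoxifen; nearly all actives have a fitted effect of over 50% in size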
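Temperature-shift cytotoxicity format: compound titrations on p53-null or A138V-expressing H1299 cells held 24 hr at 39C, cell ATP then measured, AC50 from Hill model.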
Starred values were filed as active, the others as inactive; ? = inconclusive; · = no result given; [ ] = remark or other dose. Calls come from the whole dose curve; as a rule, active = well fitted curve in the direction sought with a large enough effect; inconclusive = small, poorly fitted or top-dose-only effect, or another doubt; inactive = no such curve, though single readings can be large; an effect the other way counts as inactive or inconclusive. The list is partial. The share of hits here may be higher or lower than overall.

SMILES | FH mod | GALK inh | B2AR arrestin ag | PTAP-TSG101 blk | p53null 32C tox | p53null 39C tox
COc1ccc(/C=C(\C#N)c2nc(-c3ccc(Cl)c(Cl)c3)cs2)cc1OC | -2% | -1% | 0% | 4% | -2% | -10%
CCc1cccc2c(-c3ccccc3)nc(SCC(=O)Nc3ccc(OC)cc3)nc12 | -4% | -1% | -2% | -2% | 3% | -12%
CC(C)(C)c1ccc(C(=O)NC2(C(F)(F)F)C(=O)Nc3c2c(=O)[nH]c(=O)n3-c2ccccc2)cc1 (stereo not drawn) | 1% | -2% | 1% | 1% | · | ·
CCCCOc1cccc(C2c3c(-c4cc(C)ccc4O)n[nH]c3C(=O)N2CCOC)c1 (stereo not drawn) | ? | 8% | 0% | -12% | 30%[activator] | ?
Cc1noc(C)c1-c1ccc(-c2cc(C(N)=O)c(NC(N)=O)s2)c(O[C@H]2CCNC2)c1 | -7% | · | · | · | · | ·
CC(C)CC(C(=O)NCc1ccc(F)cc1)N1Cc2ccccc2C1=O (stereo not drawn) | 9% | -8% | -1% | -4% | -5% | 0%
CCOc1ccc(C2c3c(-c4ccccc4O)n[nH]c3C(=O)N2Cc2ccncc2)cc1 (stereo not drawn) | -15% | -6% | ? | 0% | 25% | 1%
COCC(C)Nc1ncnc2c1cnn2-c1cccc(Cl)c1 (stereo not drawn) | 0% | -1% | 1% | -2% | -22% | ?
COc1cc(NC(=O)CCn2c(-c3ccccc3)cc(C(C)=O)c2C)cc(OC)c1 | -19% | 3% | -2% | -1% | -13% | 15%
CCc1ccccc1NC(=O)C(CC)Sc1ncnc2c1sc1ccccc12 (stereo not drawn) | 5% | -2% | 0% | -7% | -2% | 6%
COc1ccc(-c2csc3ncnc(Nc4cccc(OC)c4)c23)cc1 | -18% | 1% | -1% | 1% | -1% | 22%
CC(C)c1ccc(S(=O)(=O)c2cnc(SCC(=O)Nc3cccc(C(F)(F)F)c3)nc2N)cc1 | ? | 6% | 2% | -4% | 34%[activator] | 6%
Cc1ccccc1Cn1c(C)c(CNCc2ccccc2)c(C(=O)O)c1C | -26% | -14% | -3% | -8% | -2% | -25%
COc1ccc(Cc2nc3ccc(C(=O)NCc4ccccc4Cl)cc3o2)cc1 | -19% | 2% | 0% | -1% | 2% | 10%
Cc1cc(N2CCCCC2)nc2ccc(NC(=O)c3cccc(F)c3)cc12 | -31% | 6% | 1% | 2% | -16% | ?
CCOC(=O)c1c(C)oc2ncnc(NCCc3ccccc3)c12 | -29% | -1% | -1% | -3% | 6% | -15%
Cc1nc2ccn(Cc3cccnc3)c(=O)c2cc1C(=O)Nc1ccc(OC(F)(F)F)cc1 | -20% | 0% | 1% | -8% | 26% | 23%
COc1cc(NC(=O)CN2C(=O)C(c3ccc(C)cc3)=NC23CCCCCC3)cc(OC)c1 | -21% | -4% | -3% | -4% | -7% | -17%
CC(=O)c1cc(-c2ccccc2)n(CCC(=O)NC2CCCCC2)c1C | 3% | 1% | 1% | 2% | 2% | 10%
CCOc1ccc(C(=O)Nc2cccc(NC(=O)c3ccc(C(C)(C)C)cc3)c2)cc1Br | -25% | 3% | 0% | 1% | ? | -24%
COc1ccc(-c2cc3nc(C)c(CCC(=O)NC4CCCCC4)c(C)n3n2)c(OC)c1 | -5% | 7% | 0% | 1% | 3% | 1%
COC(=O)C(Cc1ccccc1)NC(=O)c1ccccc1 (stereo not drawn) | -1% | · | · | · | · | ·
COc1ccc(OC)c(S(=O)(=O)Nc2cc3c(cc2C)n(C)c(=O)c(=O)n3C)c1 | -2% | 1% | 1% | ? | -8% | -21%
COc1ccc(-n2ccnc(NCc3ccc(C)cc3)c2=O)cc1OC | -29% | 1% | 0% | 5% | -2% | -11%
O=C(NCc1ccccc1)c1ccc2c(c1)nc1n2CCOC1 | 4% | 1% | 0% | 1% | -11% | -26%
CCOc1ccc2oc(=O)cc(CN3CCN(C(=O)c4cccc(Cl)c4)CC3)c2c1 | -19% | 4% | -1% | -14% | 6% | -12%
CCN(CC)C(=O)c1sc2c(c1C)c(=O)n(Cc1ccccc1)c(=O)n2Cc1cc(C)ccc1C | ? | -7% | -1% | -3% | 28% | 9%
O=C(Nc1ccccc1)c1nc[nH]c1C(=O)O | 1% | 5% | -2% | -4% | 6% | -22%
CCN(CC)C(=O)c1sc2c(c1C)c(=O)n(CCc1ccccc1)c(=O)n2Cc1cccc(Cl)c1 | -5% | -3% | -3% | 2% | 21% | 3%
O=C(NC1CC1)c1cccc(-c2ccc3c(NC(=O)C4CC4)n[nH]c3c2)c1 | -1%[53.3 µM] | · | · | · | · | ·
O=C(Nc1c(C(=O)N2CCN(c3ccccc3F)CC2)oc2ccccc12)c1cccc(F)c1 | -17% | 1% | -1% | -2% | -3% | 0%
Cc1ccc(NC(=O)Nc2cn(CC(C)C)c(=O)c3ccccc23)cc1N(C)C | 5% | 1% | 2% | -7% | 4% | 9%
COc1ccc(NC(=O)CCCSc2nc(-c3ccco3)cc(C(F)(F)F)n2)c(OC)c1 | -29% | 4% | 1% | -5% | 22% | 5%
COc1ccc(OC)c(NS(=O)(=O)c2ccc(-c3cc(C)no3)s2)c1 | -4% | 4% | -1% | -6% | -19% | ?
CCc1cc2c(cc3c(=O)n(CC(=O)NCCc4ccccc4)ncn32)s1 | 3% | -10% | 0% | -2% | -7% | -3%
Cn1c(=O)c(=O)n(C)c2cc(NC(=O)c3ccccc3Br)ccc21 | -11% | -1% | 1% | -1% | -5% | -25%
CCC(Cn1nnc2ccccc2c1=O)NC(=O)Nc1ccccc1Cl (stereo not drawn) | -2% | -2% | -1% | 0% | -6% | -2%
CCCCc1cc2ccccc2c(OCCN(C)C)n1 | 2%[53.3 µM] | · | · | · | · | ·
COc1ccc(NC(=O)CCNS(=O)(=O)c2ccc3c(c2)CCCC(=O)N3)cc1Cl | 2% | -1% | 0% | 1% | 12% | 14%
CCOc1ccccc1CNC(=O)c1ccc2nc(Cc3ccc(OC)cc3)oc2c1 | -16% | -2% | 0% | -8% | 5% | 4%
O=C(O)c1ccc2nc(-c3cc4cc(Cl)ccc4oc3=O)[nH]c2c1 | -15% | 2% | -2% | -6% | -26% | -18%
CCN(c1ccccc1)c1ccc2cc(S(=O)(=O)N3CCCC3)ccc2n1 | -19% | 1% | 2% | -3% | -1% | -17%
Cc1cc(NC(=O)CSc2nc3c([nH]c4ccccc43)c(=O)n2-c2cccc(Cl)c2)no1 | 9% | 1% | 0% | -8% | 3% | -5%
CCc1ccc(NC(=O)CN2C(=O)C(=O)c3ccccc32)cc1 | -8% | 7% | 0% | -3% | -1% | -23%
COc1ccccc1OCc1nc2ccccc2n1Cc1ccccc1 | -13% | -2% | -2% | -5% | -7% | 19%
CCOc1ccc(NC(=O)NC(CC)Cn2nnc3ccccc3c2=O)cc1 (stereo not drawn) | -18% | -2% | 1% | -1% | 2% | -5%
COc1ccc(OC)c(C(=O)CN2C(=O)N(c3ccc(C)cc3)S(=O)(=O)c3ccccc32)c1 | 19% | 4% | -1% | 0% | -1% | 4%
CCN(CC)C(=O)c1sc2c(c1C)c(=O)n(Cc1ccccc1)c(=O)n2Cc1c(C)cc(C)cc1C | 3% | -2% | 0% | -3% | 38%[activator] | 5%
Cc1ccc(N(C(=O)COc2ccccc2C)S(=O)(=O)c2ccc(Cl)cc2)cc1 | -18% | 0% | -1% | 1% | 27% | 0%
CCc1ccccc1N(C)C(=O)c1cn(CC(C)C)c(=O)c2cc(OC)c(OC)cc12 | -23% | 7% | -2% | -3% | 5% | 16%
O=C(CSc1cn(CCNC(=O)c2ccccc2F)c2ccccc12)Nc1ccccc1F | -3% | 1% | 0% | -2% | · | ·
COc1ccccc1C(=O)NC1(C(F)(F)F)C(=O)Nc2c1c(=O)[nH]c(=O)n2-c1ccc(F)cc1 (stereo not drawn) | -8% | 2% | 0% | 1% | -1%[9.22 µM] | -16%
N#Cc1c(C(F)(F)F)cc(-c2cccs2)nc1SCC(=O)Nc1cccc(C(F)(F)F)c1 | 2% | 0% | 0% | 22% | -17% | ?
COc1ccc(CNC(=O)c2ccc3nc(C(C)C)oc3c2)cc1OC | -29% | -1% | 0% | 1% | -2% | 1%
O=C(Nc1ccc2c(c1)CCCN2C(=O)c1cccs1)c1ccccc1Cl | -7% | -3% | -1% | -13% | -17% | -4%
Cc1nn(-c2ccccc2)c2nc(C3CC3)cc(C(=O)Nc3cccc(F)c3)c12 | -29% | -3% | 0% | 0% | 1% | 18%
COc1ccc(N2C(=O)CS(=O)(=O)C23C(=O)N(Cc2ccccc2F)c2ccccc23)cc1Cl (stereo not drawn) | -11% | 0% | 1% | 2% | 14% | -14%
Cc1ccc(-c2cn3c(n2)sc2cc(C(=O)NCCCN4CCCCCC4)ccc23)cc1 | 10% | 3% | 0% | 2% | 7% | -15%

Grouped by structure, the compounds so far with an NH in an aromatic ring.
SMILES | FH mod | GALK inh | B2AR arrestin ag | PTAP-TSG101 blk | p53null 32C tox | p53null 39C tox
CC(C)(C)c1ccc(C(=O)NC2(C(F)(F)F)C(=O)Nc3c2c(=O)[nH]c(=O)n3-c2ccccc2)cc1 (stereo not drawn) | 1% | -2% | 1% | 1% | · | ·
CCCCOc1cccc(C2c3c(-c4cc(C)ccc4O)n[nH]c3C(=O)N2CCOC)c1 (stereo not drawn) | ? | 8% | 0% | -12% | 30%[activator] | ?
CCOc1ccc(C2c3c(-c4ccccc4O)n[nH]c3C(=O)N2Cc2ccncc2)cc1 (stereo not drawn) | -15% | -6% | ? | 0% | 25% | 1%
O=C(Nc1ccccc1)c1nc[nH]c1C(=O)O | 1% | 5% | -2% | -4% | 6% | -22%
O=C(NC1CC1)c1cccc(-c2ccc3c(NC(=O)C4CC4)n[nH]c3c2)c1 | -1%[53.3 µM] | · | · | · | · | ·
O=C(O)c1ccc2nc(-c3cc4cc(Cl)ccc4oc3=O)[nH]c2c1 | -15% | 2% | -2% | -6% | -26% | -18%
Cc1cc(NC(=O)CSc2nc3c([nH]c4ccccc43)c(=O)n2-c2cccc(Cl)c2)no1 | 9% | 1% | 0% | -8% | 3% | -5%
COc1ccccc1C(=O)NC1(C(F)(F)F)C(=O)Nc2c1c(=O)[nH]c(=O)n2-c1ccc(F)cc1 (stereo not drawn) | -8% | 2% | 0% | 1% | -1%[9.22 µM] | -16%

Screens from PubChem BioAssay.
